Screens deposited in PubChem BioAssay by several laboratories.
HSV augment: enhancers of HSV replication in host cells, fold increase, host cell viability | HSV replication augmentation in cells | maximum fold increase | hit rate 0.005% among 220,000;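 active = peak rise of 1.5-fold or more in the series; tested in PC3 cells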;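 also: first round at 10 µM; read as green reporter fluorescence; hits show the peak of a series up to 25 µM; 1 = signal of infected wells without compound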
Insulin prom inh: inhibitors of insulin promoter-driven GFP, primary screen, imaging, TRM-6 cells (human fetal islet line), eGFP reporter, cell count. reporter expression induced with tamoxifen. inhibition, % at 2 µM. hit rate 0.9% among 130,000. AID 1273, 2008;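 active = inhibition above the mean plus 3 SD, with well images judged a real hit on visual review, cut at about 60% in these data, passing the limit was not always enough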
RGS16-Gao: modulators of RGS16 binding to Galphao, primary screen, biochemical, human proteins, multiplexed bead flow cytometry; Regulator of G-protein signaling 16 (Homo sapiens) + Guanine nucleotide-binding protein …; bead-based flow cytometry RGS16-Galphao binding, fluorescence; actives lie on both sides; hit rate 0.38% among 220,000; binding response (% of control), % at 10 µM; AID 1441, 2008;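 active = below 25% or above 175%, edge rows of some plates excepted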;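 also: Galphao activated by GDP with aluminum fluoride before binding; 100% = wells without compound and 0% = beads without RGS; some results beyond the cut were filed as inactive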
PKD1 inh: inhibitors of human PKD1 kinase, biochemical, fluorescence polarization. PKD1 kinase fluorescence polarization assay. Serine/threonine-protein kinase D1 (Homo sapiens), Q15139. hit rate 0.056% among 200,000. inhibition, %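 (about 10 µM by stock and volumes)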;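 active = inhibition of 50% or more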;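 also: controls were vehicle for no effect and a reference inhibitor for full effect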
Target sequence (Q15139 whole entry, looked up): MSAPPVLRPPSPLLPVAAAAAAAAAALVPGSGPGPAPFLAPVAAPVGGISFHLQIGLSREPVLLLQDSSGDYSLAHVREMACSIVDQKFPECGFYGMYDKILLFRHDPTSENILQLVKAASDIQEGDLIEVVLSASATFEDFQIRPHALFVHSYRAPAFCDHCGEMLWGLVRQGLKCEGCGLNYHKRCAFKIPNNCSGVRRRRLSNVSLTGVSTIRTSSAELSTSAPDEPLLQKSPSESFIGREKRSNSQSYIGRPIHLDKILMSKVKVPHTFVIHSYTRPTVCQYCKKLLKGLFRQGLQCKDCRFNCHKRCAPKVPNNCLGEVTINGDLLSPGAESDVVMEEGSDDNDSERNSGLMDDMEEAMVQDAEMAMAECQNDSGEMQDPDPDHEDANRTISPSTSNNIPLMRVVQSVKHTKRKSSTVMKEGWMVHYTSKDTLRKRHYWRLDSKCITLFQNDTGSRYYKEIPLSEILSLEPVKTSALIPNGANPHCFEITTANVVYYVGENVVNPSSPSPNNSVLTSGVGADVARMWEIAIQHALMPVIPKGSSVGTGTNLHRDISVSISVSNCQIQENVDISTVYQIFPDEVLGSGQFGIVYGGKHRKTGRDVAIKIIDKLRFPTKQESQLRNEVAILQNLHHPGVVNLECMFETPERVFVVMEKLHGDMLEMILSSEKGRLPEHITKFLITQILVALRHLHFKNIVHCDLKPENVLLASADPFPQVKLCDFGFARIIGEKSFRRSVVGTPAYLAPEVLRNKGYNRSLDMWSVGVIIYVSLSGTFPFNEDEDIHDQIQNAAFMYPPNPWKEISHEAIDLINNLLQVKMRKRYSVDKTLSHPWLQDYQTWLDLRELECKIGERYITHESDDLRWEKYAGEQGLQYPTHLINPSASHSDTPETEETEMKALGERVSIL
GALR2 ag: GALR2 receptor agonists, primary screen, cell-based. Galanin receptor type 2 (Homo sapiens), O43603. GALR2-expressing cells, agonist activation read-out. activation, %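 (tested at 5 µM)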. hit rate 0.48% among 140,000. AID 803, 2007;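 active = above mean plus 3 SD of all compounds, about 5% in these data, not always enough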;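 also: 0% = vehicle buffer wells and 100% = reference agonist at full effect; tested in CHO reporter cells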
Insulin prom inh cell count: recorded beside Insulin prom inh, whose call it bears; normalized cell count, %; measured here: cell count, toxicity; reference of the scale not given here;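 cells exposed to compound for 48 h; stained nuclei by imaging scaled within each plate; lower means fewer cells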
HSV augment primary fold: also measured in HSV augment; calls as there; fold increase; compound at 10 µM; measured here: primary screen fold increase 10 uM; tested in PC3 cells;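 GFP signal in the first replicate; 1 = infected wells without compound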
* = called active by the depositor; i = inactive; · = no result given. Hits appear at their usual frequency. About 1.1% of those tested had a hit in this group.

SMILES	HSV augment	HSV augment primary fold	Insulin prom inh	Insulin prom inh cell count	RGS16-Gao	PKD1 inh	GALR2 ag
C=C(C)c1cccc(C(C)(C)NC(=O)NC2CC(C)(C)NC(C)(C)C2)c1	i	1.03	-50.0	118.0	106.1	1.7	·
CCOC(=O)/C(C#N)=C/c1cc2ccccc2nc1N1CCCCC1	i	1.06	·	·	154.5	-2.3	·
CCOC(=O)/C(C#N)=C/c1c(Oc2cccc(C)c2)nc2ccccn2c1=O	i	0.79	·	·	91.6	·	·
COCCCn1c(SCC(=O)NC(C)(C)C)nnc1-c1cccs1	i	0.9	·	·	102.2	·	·
CC(C)(C)NC(=O)COC(=O)c1ccccc1OCC(=O)Nc1ccc(Br)cc1	i	0.91	·	·	99.5	12.6	0.8
COc1ccc(NC(=S)N2c3ccccc3CC2C)cc1OC (stereo unspecified)	i	0.8	·	·	102.0	-5.9	·
C/C(=N\NC(=O)c1nn(C)c(C)c1Br)c1cccc(NC(=O)c2ccoc2C)c1	i	0.82	-7.7	93.6	214.4	-0.7	-0.6
CCOC(=O)c1nc(C)n(-c2ccc(Cl)cc2)n1	i	0.93	-14.8	139.2	102.0	-0.6	7.2
CCOc1ccc(N(CC(=O)Nc2cccc(Cl)c2)S(=O)(=O)c2c(C)noc2C)cc1	i	0.97	·	·	93.4	9.9	-3.1
Nc1cccc(CN2CCCC2)c1	i	1.07	26.3	77.0	101.0	0.4	·
CCOc1ccc(NC(=O)CC2C(=O)N(c3ccccc3)C(=O)N2CCOC)cc1 (stereo unspecified)	i	0.98	·	·	98.2	0.9	·
Cc1ccccc1Nc1nnc(SCC(=O)NCc2ccco2)s1	i	0.89	28.6	58.0	106.0	-8.7	-1.8
CC1(C)Cc2ccccc2-c2nc3n(c(=O)c21)CCCS3	i	1.06	·	·	103.5	-6.2	·
Cc1nn(Cc2ccc(F)cc2)c(C)c1NC(=O)c1cnn2c1NC(c1cccs1)CC2C(F)(F)F (stereo unspecified)	i	0.94	-16.7	55.1	97.6	1.2	-0.3
CC(=O)C(Sc1nc(-c2ccc(F)cc2)nc2c1c(=O)n(C)c(=O)n2C)C(C)=O	i	0.82	·	·	101.3	-7.1	·
CCN1C(=O)C(CC(=O)Nc2ccc(OC)cc2)N(Cc2ccc3c(c2)OCO3)C1=S (stereo unspecified)	i	0.86	8.0	65.5	97.8	-7.5	-0.5
Fc1cc(NCc2ccccc2)nc(NCc2ccccc2)n1	i	1.02	7.1	93.3	100.6	-2.7	-0.1
CC(C)CN(C)C(=O)CCc1nnc(Cc2cccc(C(F)(F)F)c2)o1	i	1.07	·	·	99.2	-6.8	·
CN1CCc2nc(SCc3ccc(C(C)(C)C)cc3)c(C#N)cc2C1	i	0.8	-6.7	117.9	106.9	-14.2	-0.1
Cc1cc(C)n(C(=O)c2c([N+](=O)[O-])c(C)nn2C)n1	i	0.85	-162.1	60.0	97.9	0.9	-4.2
Cn1c(SCC(=O)c2ccccc2)nnc1-c1ccco1	i	1.01	30.8	115.0	167.4	-6.6	-1.8
Cc1nc(N2CCc3ccccc32)[nH]c(=O)c1CCC(C)C	·	·	42.9	70.7	·	-12.7	-1.1
COc1ccc(N2CCN(Cc3cc(=O)oc4cc(C)c(Cl)cc34)CC2)cc1	i	0.98	·	·	101.3	4.6	-0.6
Cc1ccccc1C(=O)NC(=S)NCCN1CCOCC1	i	1.1	61.1	100.6	137.5	-9.6	-1.3
Cc1ccc(C)c(NC(=O)c2ccc3ccccc3n2)c1	i	1.04	62.9	87.5	98.5	-1.1	-1.6
COc1ccc(OC)c(C2N(c3cc(C)on3)C(=O)C3CCCN32)c1 (stereo unspecified)	i	1.05	35.7	135.4	102.7	-1.1	-2.9
O=C1c2cccc([N+](=O)[O-])c2C(=O)N1c1c[nH]c(=O)[nH]c1=O	i	0.81	14.3	87.3	96.7	-2.2	·
COCCCNc1nc(N)c([N+](=O)[O-])c(Nc2cc(OC)ccc2OC)n1	i	0.85	·	·	101.2	·	·
O=C(OCC1CC(c2ccccc2)=NO1)c1ccc(Br)cc1 (stereo unspecified)	i	1.06	·	·	125.9	-3.7	-0.1
O=C(Nc1ccc(Br)cc1)c1cccnc1N1CCOCC1	i	1.14	-22.2	35.8	102.3	8.0	·
Cc1cc(O)c(Oc2cc(C)cc(O)c2O)c(O)c1	i	0.87	·	·	88.8	-1.1	·
COCCCNC(=S)NCCNc1nc2c(C)c(C)ccc2cc1C#N	i	1.06	·	·	96.6	-8.1	·
Cc1ccnc(NC(=O)c2cc3c(=O)oc4ccc(C)cc4c3s2)c1	i	1.05	·	·	103.5	·	·
COc1ccc(C(=O)Oc2ccc(/C=N/O)cc2)cc1	i	1	25.8	96.6	96.2	-3.9	-2.5
Fc1cccc(Cn2ccc(-c3ccc4c(c3)OCO4)n2)c1	i	0.88	·	·	101.8	1.4	-3.5
C=CCSc1n[nH]c(-c2cccs2)n1	i	1.05	·	·	100.3	·	·
N#CC1(C#N)C(C(N)=O)C1c1ccccc1 (stereo unspecified)	i	1.04	26.1	63.8	104.5	-11.3	-0.8
O=C(NN1CCOCC1)c1cc(-c2ccc(Br)s2)nc2ccccc12	i	0.94	18.2	103.8	112.7	-2.7	·
CCOc1ccccc1CN1CCN(CCCn2cccn2)CC1CCO (stereo unspecified)	i	1	-13.0	89.3	109.5	1.2	·
Cc1cc(NC(=O)C(C)C)ncc1NC(=O)c1cccc(F)c1	i	0.94	21.4	130.6	92.5	-0.3	-3.1
COc1cc(/C=N/NC(=O)c2ccc(=O)[nH]n2)ccc1O	i	0.92	-13.3	92.4	101.6	10.3	-0.8
COc1cccc(NC(=O)/C=C/c2ccc([N+](=O)[O-])cc2)c1	i	0.88	·	·	103.3	·	·
COC(=O)N/N=C\C=C\c1ccc2c(c1)OCO2	i	0.94	·	·	103.3	-6.4	-3.9
Cc1ccc(-n2ncc3c(=O)n(CC(=O)N4CCN(c5ccccc5)CC4)cnc32)cc1	i	0.82	11.1	85.7	103.5	-6.0	·
Cc1ccc(C)c2[nH]c(=O)c(CCNC(=O)c3ccc(Br)o3)cc12	i	0.79	-42.9	100.5	·	1.3	-1.9
COc1ccccc1-c1nn2c(C3COc4ccccc4O3)nnc2s1 (stereo unspecified)	i	0.61	·	·	57.7	-17.4	-2.0
Cc1[nH]c2ccccc2c1C(=O)COC(=O)c1ccc[n+]([O-])c1	i	0.97	·	·	107.1	·	·
O=c1c2c3c(sc2nc2sc(CN4CCOCC4)cn12)CCCC3	i	0.92	35.1	121.7	101.8	-9.0	-1.8
CCOC(=O)NC(c1ccccc1)C1CCCCC1=O (stereo unspecified)	i	0.87	8.3	78.1	101.1	-0.9	-1.1
COc1ccc(CC(=O)N/N=C/C=C/c2cccc([N+](=O)[O-])c2)cc1OC	i	0.82	·	·	98.5	·	·
Brc1cnc2nc[nH]c2c1	i	0.96	·	·	105.5	·	·
O=C(Nc1ccc2c(c1)OCO2)N1CCCc2ccccc21	i	1.02	·	·	101.9	·	·
Cc1nc2ncnn2c(C)c1CCC(=O)NCc1ccco1	i	1	-15.4	191.9	101.7	-5.4	-0.9
Cc1cc(C(=O)Nn2cnc3ccccc3c2=O)ccc1[N+](=O)[O-]	i	0.89	·	·	90.1	-1.7	·
O=C(NC1CC1)C1=C[C@H](c2ccc(Br)cc2)C[C@H](OCc2ccc(CO)cc2)O1	i	0.97	·	·	72.2	·	·
NC(=O)NC(=O)COC(=O)c1ccc(OC(F)F)cc1	i	0.94	·	·	99.3	2.0	·
Nc1cccc(C2=Nc3cccc4cccc(c34)N2)c1	i	0.97	·	·	92.3	6.1	-0.5
CCN(CC)c1nc(C)nc2c1cnn2CCc1ccccc1	i	0.89	8.6	117.5	89.9	2.4	-2.7
C/C(=N\NC(=O)CCC(=O)Nc1ccc(C)c(C)c1)c1cccs1	i	0.97	·	·	105.3	-0.7	·
CCOC(=O)c1oc2c(CN3CCN(C)CC3)c(O)ccc2c(=O)c1-c1ccccc1OC	i	0.85	·	·	105.7	-3.9	-1.9

Shown as a markdown table: 2 of the compounds above
| SMILES | HSV augment | HSV augment primary fold | Insulin prom inh | Insulin prom inh cell count | RGS16-Gao | PKD1 inh | GALR2 ag |
| --- | --- | --- | --- | --- | --- | --- | --- |
| CCN(CC)c1nc(C)nc2c1cnn2CCc1ccccc1 | i | 0.89 | 8.6 | 117.5 | 89.9 | 2.4 | -2.7 |
| O=C(Nc1ccc2c(c1)OCO2)N1CCCc2ccccc21 | i | 1.02 | · | · | 101.9 | · | · |

Next section:
SMILES	HSV augment	HSV augment primary fold	Insulin prom inh	Insulin prom inh cell count	RGS16-Gao	PKD1 inh	GALR2 ag
C/C(=N\NC(=O)c1cccc(Cl)c1)c1cccc(NC(=O)c2ccco2)c1	i	0.91	8.7	98.1	49.5	-9.4	-1.7
CCc1nnc(NC(=O)CSc2nnc(Cc3cc(=O)[nH]c(=O)[nH]3)n2-c2cccc(OC)c2)s1	i	0.98	-77.8	52.4	108.4	-7.4	·
CC1(C)CC(=O)C2=C(C1)OC(N)=C(C#N)C2c1cn(-c2ccccc2)nc1-c1ccccc1 (stereo unspecified)	i	0.84	-10.3	113.7	97.8	-7.2	0.6
COc1ccc2[nH]cc(C(O)CN3CCC(C(N)=O)CC3)c2c1 (stereo unspecified)	i	0.92	-2.3	154.1	110.9	-2.0	-0.6
O=C(O)c1cccc(CN2C(=O)SC(Nc3cccc4ccccc34)C2=O)c1 (stereo unspecified)	i	1	31.7	60.5	108.5	-6.7	·
COc1ccc(C(=O)COC(=O)CN2C(=O)C3C4C=CC(C4)C3C2=O)cc1 (stereo unspecified)	i	1.05	·	·	95.6	-4.1	-0.8
O=C(Nc1cccc(NC(=O)c2cccs2)c1)c1ccc([N+](=O)[O-])o1	i	0.58	·	·	100.8	·	·
O=C(O)COc1ccc(/C=N/NC(=O)c2ccccc2Br)cc1	i	1.16	·	·	99.4	-0.7	·
COc1cccc(C(=O)NC(=S)NCc2ccco2)c1	i	1.14	24.1	171.5	104.9	0.4	-1.6
O=c1c2ccccc2c(-c2ccccc2)nn1-c1ccc(Cl)c(Cl)c1	i	0.96	-29.6	88.3	101.9	2.2	-1.0
Cc1ccc(-c2nnc(-c3ccc(NC(=O)c4cccs4)cc3)o2)cc1	i	0.52	·	·	102.7	7.2	-2.3
CCc1nc(C)cn1S(=O)(=O)c1cc(C)c(OC)c(C)c1C	i	1.02	8.7	125.6	100.5	-1.8	-2.7
COc1ccc(OC)c(/C=N/NC(=O)CCc2n[nH]c(=O)[nH]c2=O)c1	·	·	14.3	202.7	99.3	-3.6	·
O=C(Nc1nc2ccccc2[nH]1)c1ccccc1F	i	1.01	35.7	47.8	104.6	1.0	-0.1
Cc1ccc(-c2csc3nnc(SCC(=O)NCc4ccco4)n23)cc1	i	0.96	4.8	118.9	104.5	-5.9	-1.9
Cc1nc2ccccc2n1CC(=O)NCCN1CCCC1	i	0.67	-80.0	76.2	105.5	-4.6	-0.2
CCSc1nc(C(F)(F)F)cc(=O)n1-c1ccccc1	i	1.07	-21.4	94.9	119.3	-9.1	-1.7
Cc1cccc(NC(=O)CSc2nnc(-c3ccco3)n2CC2CCCO2)n1 (stereo unspecified)	i	1.03	·	·	103.4	-8.7	·
CCC(Oc1ccc2c(=O)c(-c3ccccc3OC)coc2c1)C(=O)OCc1ccccc1 (stereo unspecified)	i	0.81	30.0	90.0	103.2	0.2	-1.2
COC(=O)c1sccc1-n1cccc1C(=O)NCc1ccccc1	i	0.98	9.1	124.3	99.2	-1.8	-0.7

Whole records, quoted from the list. Order of screens: HSV augment	HSV augment primary fold	Insulin prom inh	Insulin prom inh cell count	RGS16-Gao	PKD1 inh	GALR2 ag
`Cc1ccc(-c2csc3nnc(SCC(=O)NCc4ccco4)n23)cc1` is entered as i	0.96	4.8	118.9	104.5	-5.9	-1.9
`Cc1nc2ccccc2n1CC(=O)NCCN1CCCC1` is entered as i	0.67	-80.0	76.2	105.5	-4.6	-0.2
`COc1ccc(OC)c(/C=N/NC(=O)CCc2n[nH]c(=O)[nH]c2=O)c1` is entered as ·	·	14.3	202.7	99.3	-3.6	·
`O=C(Nc1nc2ccccc2[nH]1)c1ccccc1F` is entered as i	1.01	35.7	47.8	104.6	1.0	-0.1
`CCSc1nc(C(F)(F)F)cc(=O)n1-c1ccccc1` is entered as i	1.07	-21.4	94.9	119.3	-9.1	-1.7
